# StopGo RLuc – FMDV 2A StopGo reporter, Renilla signal | HEK cells with a luciferase reporter of 2A StopGo recoding | AID 1745857 | 120,000 tested, 0.32% active | Potency, µM (doses to about 57.5 µM), for inactives: at the highest dose signal change, negative = less light; active means well fitted falling curve with a large enough effect; inconclusive means small, poorly fitted or top-dose-only effect; inactive means no such curve, though single readings can be large or run the other way; also: nearly all actives have a fitted effect of over 55% in size; overnight with compound
# 2A firefly – lowers the firefly signal of an FMDV 2A StopGo reporter; HEK cells with a luciferase reporter of 2A StopGo recoding; 120,000 tested, 0.23% active; Potency, µM (top dose mostly 57.5 µM), for the others: at the top dose signal change, negative = less light; active = well fitted falling curve with a large enough effect; inconclusive = small, poorly fitted or top-dose-only effect; inactive = no such curve, though single readings can be large or run the other way; also: nearly all actives have a fitted effect of over 60% in size; overnight with compound
# The depositor's hits bear a star; ? = inconclusive; [ ] = another dose, or the depositor's remark. % is scaled to controls: 0 for no effect and ±100 for the full control effect; potency is read from the fitted curve at half-maximal effect.
SMILES,StopGo RLuc,2A firefly
CCc1ccc(-c2[nH]c3c(c2-c2c(-n4cccc4)n(C)c(=O)n(C)c2=O)c(=O)n(C)c(=O)n3C)cc1,-4%,-11%
CCc1ccc(CNC(=O)c2ccccc2-c2ocnc2C(=O)OC)cc1,9%,-10%
CCOc1ccc(NC(=O)c2oc(=O)c3ccccc3c2-c2ccc(C)cc2)cc1,6%,-20%
COc1ccc(Cl)cc1NC(=O)CSc1nc2ccccc2c2nc(-c3ccccc3)nn12,-6%,-10%
O=C(Cc1ccsc1)Nc1ccccc1Br,2%,46%[activator]
Ic1cccc(-c2nc(-c3ccccn3)no2)c1,8%,-5%
O=C1OCCC1N1CCC(c2nc3ccccc3s2)CC1 (stereo not given),1%,58%[activator]
COc1ccc(-c2coc3cc(OCC(=O)NCc4ccc(Cl)cc4)ccc3c2=O)cc1OC,-1%,-4%
Cc1cc(C)n(-c2nc3cc(Cl)c(Cl)cc3nc2Nc2c(C)cccc2C)n1,8%,0%
Cc1ccc(S(=O)(=O)c2cc3cc(C(=O)O)ccc3oc2=O)cc1,-24%,-22%
CCOc1ccc(-c2cc(NC(=O)Nc3ccc(Cl)cc3)c(C(=O)OC)s2)cc1,-13%,30%[activator]
Cc1nn(C)c(C)c1C(=O)NCc1cc(Cl)c2c(c1)OCCCO2,?,?
CCCCn1c(=O)n(Cc2cccc(F)c2)c(=O)c2c1ncn2Cc1ccco1,-2%,-6%
CC1=C(C#N)C(NC(=O)c2cccc(Cl)c2)(C(F)(F)F)C(=O)N1 (stereo not given),-3%,-9%
COc1cc2c(=O)n(CCC(=O)NCC3CCCO3)c(=O)n(CC(=O)Nc3ccc(F)cc3)c2cc1OC (stereo not given),-13%,-12%
CCOC(=O)Cn1c(=O)n(C2CCCCC2)c2nc(-c3ccccc3Cl)nc(C(N)=O)c21,-6%,-7%
Cn1nc(C(=O)NCCc2ccc(F)cc2)c2ccccc2c1=O,50%[activator],115%[activator]
COc1cccc(C(=O)Nc2ccc3nc(SCc4ccc(C)cc4)sc3c2)c1,-1%,-15%
CC(=O)N/N=C/c1cc(Cl)ccc1OCCCOc1ccc(C)cc1C,21%,21%
CC(C)c1ccc(OC(=O)c2cc(-c3ccc(Cl)cc3)on2)cc1,17%,53%[activator]

# Some values from above.
# StopGo RLuc with CC(C)c1ccc(OC(=O)c2cc(-c3ccc(Cl)cc3)on2)cc1 : 17%
# StopGo RLuc with CC(=O)N/N=C/c1cc(Cl)ccc1OCCCOc1ccc(C)cc1C : 21%
# 2A firefly with Cn1nc(C(=O)NCCc2ccc(F)cc2)c2ccccc2c1=O : 115%[activator]
# StopGo RLuc with Cc1cc(C)n(-c2nc3cc(Cl)c(Cl)cc3nc2Nc2c(C)cccc2C)n1 : 8%
# StopGo RLuc with CCc1ccc(-c2[nH]c3c(c2-c2c(-n4cccc4)n(C)c(=O)n(C)c2=O)c(=O)n(C)c(=O)n3C)cc1 : -4%

# The listing picks up; the three compounds before the break are reprinted first.
SMILES,StopGo RLuc,2A firefly
COc1cccc(C(=O)Nc2ccc3nc(SCc4ccc(C)cc4)sc3c2)c1,-1%,-15%
CC(=O)N/N=C/c1cc(Cl)ccc1OCCCOc1ccc(C)cc1C,21%,21%
CC(C)c1ccc(OC(=O)c2cc(-c3ccc(Cl)cc3)on2)cc1,17%,53%[activator]
COc1cc(OC)c(OC)cc1/C=C/c1nc2ccccc2[nH]c1=O,17%,20%
CCN(CC)CCN(C(=O)c1ccco1)c1nc2c(C)c(C)ccc2s1,?,22%
O=[N+]([O-])c1ccc2nonc2c1Nc1ccccc1Cl,7%,19%
Cn1c(=O)c2c(nc(N3CCc4ccccc4C3)n2Cc2c(F)cccc2Cl)n(C)c1=O,-4%,-1%
COc1cccc(C(=O)c2cc3ccc(O)cc3oc2=O)c1,62%[activator],188%[activator]
CCOC(=O)c1c(S(=O)(=O)N2CCCC(C(=O)Nc3cccc(C)n3)C2)c(C)n(C)c1C (stereo not given),-4%,-12%
COc1cc(/C=N/NC(=O)CNc2cccc(C(F)(F)F)c2)ccc1OC(=O)c1ccccc1F,19%,19%
O=C(Cn1ccc2cc(Cl)ccc21)N1CCOCC1,-1%,0%
COc1cc2c(c(OC(=O)c3ccccc3)c1OC)CC(=O)CCC2,40%[activator],48%[activator]
CCOc1ccccc1N(C)C(=O)c1nn(-c2ccc(C)cc2)c(=O)c2c1c1ccccc1n2C,-9%,-4%
Cc1cc(Nc2cccc([N+](=O)[O-])c2)c2cc(Cl)ccc2n1,-3%,0%
CCN1CCN(C(c2ccc(OC)cc2)c2c(O)cc(C)n(CCOC)c2=O)CC1 (stereo not given),-2%,-14%
CCn1c(C)c(C)c2cc(C(=O)NCc3ccc(OC(C)C)cc3)ccc21,4%,-9%
FC(F)(F)c1cc(-c2ccccc2)nc(SCc2ccncc2)n1,?,?
Cc1ccc(NC(=O)CCn2cnc3c2c(=O)n(C)c(=O)n3C)cc1C,-4%,37%[activator]
COc1c(Cl)cc(Cl)cc1/C=C(\C#N)c1nc(-c2ccc(Cl)cc2)cs1,1%,-11%
CC(C)Cc1nc(C#N)c(NCc2ccc(F)cc2)o1,14%,0%
Cc1cc(C)cc(NC(=O)NCCn2nnc3cc(S(=O)(=O)N(C)C)ccc32)c1,-14%,-6%
COCCn1c(SC(C)C(=O)c2cc(C)ccc2C)nnc1-c1ccc(Cl)cc1 (stereo not given),43%[activator],0%
CCOC(=O)C(=O)Nc1cc(OC)c(OC)c(OC)c1,5%,0%

# The last 2 entries of the part above are carried over, then new ones follow.
SMILES,StopGo RLuc,2A firefly
COCCn1c(SC(C)C(=O)c2cc(C)ccc2C)nnc1-c1ccc(Cl)cc1 (stereo not given),43%[activator],0%
CCOC(=O)C(=O)Nc1cc(OC)c(OC)c(OC)c1,5%,0%
COc1ccccc1NC(=O)CSC1=Nc2ccccc2C2=NC(CC(=O)NCc3ccco3)C(=O)N12 (stereo not given),35%[activator],2%
Cc1ccc(OCC(=O)N2CCN(Cc3ccc(F)cc3)CC2)cc1,4%,0%
Cc1cccc(NC(=O)CSc2cn(CC(=O)N3CCCCCC3)c3ccccc23)c1,-9%,29%
Cc1ccc(-c2csc(=Nc3ccccc3)n2Cc2ccc3c(c2)OCO3)cc1,-20%,118%[activator]
CCN(CC)CCNC(=O)c1ccc(-c2nc(CN3CCc4ccccc43)c(C)o2)cc1,17%,21%
CCCC(C)(COC(N)=O)COC(=O)NC(C)C (stereo not given),-10%,-19%
O=C(O)C1(Cc2nc3ccccc3s2)CCCCC1,1%,13%
CC1(C)CC(Nc2nc(-c3ccncc3)nc3ccccc23)CC(C)(C)N1,?,?
CC(C)(C)OC(=O)N1CCC(c2c(C(=O)N3CCC(c4ccccc4)C3)cnn2-c2cccc(Cl)c2)CC1 (stereo not given),-13%,22%
Cc1c(CC(=O)NCc2ccc3c(c2)OCO3)c(=O)oc2cc(O)c(Cl)cc12,11%,35%[activator]
CCOC(=O)c1[nH]c(C)c(C(=O)Nc2cccc(Cl)c2C)c1C,38%[activator],0%
COc1ccc(/C=C2\N=C(c3ccc(Br)cc3)NC2=O)cc1OC,-2%,8%
Cc1ccccc1OCC(=O)Nc1c(C)ccc2nsnc12,7%,2%
COc1ccc2c(c1)c(C(C)=O)c(C)n2CCc1ccc(OC)c(OC)c1,-6%,-3%
Cc1cccc(NC(=O)C2CCCN(S(=O)(=O)c3cnc[nH]3)C2)c1C (stereo not given),-11%,-7%
O=C(CSc1cn(CC(=O)N2CCCC2)c2ccccc12)Nc1cccc(C(F)(F)F)c1,?,?
COC(=O)c1ccc(NC(=O)c2cc(S(=O)(=O)N3CCOCC3)cn2C)cc1,7%,-6%
COc1ccc2c(Sc3ccc(Cl)cc3)c(C(=O)NCCCN3CCCCC3)[nH]c2c1,30%,-11%
CCc1ccccc1NC(=O)NC(CC)Cn1nnc2ccccc2c1=O (stereo not given),7%,-17%
CCN1C(=O)C(Cc2ccc(OC)c(OC)c2OC)c2ccccc21 (stereo not given),40%[activator],13%
NC1(C(=O)O)Cc2ccccc2C1,-8%,-6%
COc1ccc(N2CCN(C(=O)c3c(C)oc4ncn(CC(C)C)c(=O)c34)CC2)cc1,0%,-3%
O=C(NCc1ccncc1)c1nc(-c2ccc3cc[nH]c3c2)no1,-13%,27%
O=C(NCCc1cc2ccccc2[nH]1)Nc1cccc2ccccc12,-16%,-14%
N#Cc1ccc(COC(=O)c2ccccc2NCCO)cc1,18%,22%
CCOc1ccc2nc(NC(=O)c3nc(SCc4ccc(C)cc4)ncc3Cl)sc2c1,-3%,-20%
CCS(=O)(=O)N1CCc2cc(C(=O)Nc3cccc(C)c3C)ccc21,5%,74%[activator]
Cc1ccc(C(=O)Nc2ccccc2C(=O)Cc2ccccc2)cc1,4%,19%
Cc1ccc(-c2nnn(CCCn3c(=O)c4c(ncn4C)n(C)c3=O)n2)cc1,-3%,8%
Cc1ccc(-n2c3nc(=O)n(C)c(=O)c-3cc3ccccc32)c(C)c1,-6%,27%
Cc1cc(SCc2ccccc2F)nc2ccccc12,14%,43%[activator]
Cc1cc(SCC(=O)c2ccc(F)cc2)nc2ccccc12,35%[activator],81%[activator]
CCOc1ccc(N(Cc2cc3cc(OC)ccc3[nH]c2=O)S(C)(=O)=O)cc1,3%,-4%
COc1c(C)c2c(c(O)c1C/C=C(\C)CCC(=O)O)C(=O)OC2,-30%,12%[11.5 µM]
CC(N)COc1ccccc1C(F)(F)F (stereo not given),8%,33%[activator]
Fc1ccc(N2CCN(c3ncnc4c3nc3n4CCCC3)CC2)cc1,?,?
CN(C)CCOC1=Cc2ccccc2Sc2ccc(Cl)cc21,-12%,-20%
Cn1ncc(C(=O)NCc2cccnc2)c1-n1cccc1,-7%,18%
O=C1CCCC2=C1C(c1ccncc1)n1nc(-c3cccc(Cl)c3)nc1N2 (stereo not given),23%,32%[activator]
CCOC(=O)c1oc2ccc(S(=O)(=O)n3nc(-c4ccc(C)cc4)cc3N)cc2c1C,11%,-19%
CC(=O)NC(CC(=O)N1CCN(CC(=O)Nc2cccc(C)c2C)CC1)c1ccccc1 (stereo not given),0%,5%
CCCCn1nc(C(=O)Nc2sc3c(c2C#N)CCCC3)c2ccccc2c1=O,-13%,-2%
CC(C)CNc1nc(Oc2ccc(OCC(N)=O)nn2)nc(N2CCOCC2)n1,-1%,-18%
O=C(NC1CCCCCCC1)c1nn(Cc2ccccc2)c(=O)c2ccccc12,14%,11%
COc1ccc2nc(NS(=O)(=O)c3ccc(Cl)cc3)c(NCc3ccc4c(c3)OCO4)nc2c1,6%,10%
O=c1[nH]c(=O)n(-c2ccccc2F)c2c1CN(Cc1ccco1)CN2,4%,-4%
CC(=O)c1ccccc1OCC(O)Cn1c(CO)nc2ccccc21 (stereo not given),-7%,34%[activator]
O=c1oc2cc(OS(=O)(=O)c3ccccc3)ccc2cc1-c1ccccc1,10%,-2%
Cc1nn2c(=O)cc(COC(=O)c3cccc(NC(=O)COc4ccccc4C)c3)nc2s1,-8%,?
Cc1ccc(C(=O)/C=C/c2cccc(OC(C)C(=O)O)c2)o1 (stereo not given),-20%,-9%
CC(=O)c1cccc(NC(=O)CN(CCc2ccccc2)S(=O)(=O)c2ccccc2)c1,115%[activator],0%
CCCCN(CC)C(=O)CCCn1c(=O)c2cccn2c2ccccc21,8%,-16%
O=C(Nc1ccc(Cl)cc1C(F)(F)F)c1cc(S(=O)(=O)N2CCOCC2)ccc1F,-6%,-1%
CCOc1ccccc1NC(=O)c1cc2c(s1)-c1ccc(Cl)cc1S(=O)(=O)C2,-11%,1%
CC1=C(C(=O)Nc2ccccc2)C(c2ccncc2)n2nc(SCc3ccccc3Cl)nc2N1 (stereo not given),-6%,2%
CCCCNc1nc(-c2c(N)n(CCC)c(=O)n(C)c2=O)cs1,-5%,-5%
CN1CCCCCC1=NCCCn1cnc2c1c(=O)[nH]c(=O)n2C,-1%,19%
CCOC(=O)c1ccc(Oc2coc3cc(OC(=O)c4ccccc4F)ccc3c2=O)cc1,2%,0%
Cc1ccc2c(CC(=O)Nc3c(C)cccc3C)coc2c1,4%,5%
COc1cccc(C(=O)Nc2cc(C(C)(C)C)on2)c1,35%[activator],221%[activator]
# Remaining list, next part:
SMILES,StopGo RLuc,2A firefly
CCCCN(C)CCNC(=O)c1ccc2c(c1)NC(=O)CN2,-4%,-15%
CC(C)n1nc(C(=O)Nc2ccc(F)c(F)c2)c2ccccc2c1=O,-5%,-2%
CCOC(=O)C1CCN(C(=O)COC(=O)c2cn(-c3ccccc3)nc2-c2ccccc2)CC1,-2%,11%
Cc1ccc(NC(=O)c2ccc(C(C)(C)C)cc2)c(C(=O)c2ccccc2)c1,10%,-4%
CCOC(=O)CNC(=O)C1(C)CCC(=O)N1Cc1ccccc1Cl (stereo not given),2%,2%
COc1ccccc1CNC(=O)COCc1cc(-c2cccs2)on1,9%,-22%
COC(=O)c1cc(S(=O)(=O)NCC2CCN(Cc3cccc(Cl)c3)CC2)c[nH]1,1%,-1%
COc1ccc2c(C)c(CC(=O)NCCc3ccccc3)c(=O)oc2c1,-5%,0%
COc1ccc(Nc2nc3ccccc3nc2NS(=O)(=O)c2ccc(NC(C)=O)cc2)cc1OC,100%[activator],112%[activator]
Cc1ccccc1C(C)NC(=O)CCC(=O)c1ccc2c(c1)CCC2 (stereo not given),22%,-7%
O=C(NC1CC1)c1ccc2c(c1)CCCC2,19%,63%[activator]
CCc1nn2c(=O)cc(CN(CC)Cc3ccc(OCc4ccccc4)cc3)nc2s1,334%[activator],33%[activator]
O=S(=O)(c1ccc2c(c1)CCN2)N1CCOCC1,3%,11%
Cc1ccc(C)c(N2CCN(S(=O)(=O)c3cc(Br)cc4c3N(C(=O)C3CC3)CC4)CC2)c1,12%,-10%
C=Cc1ccc(CSc2nc(-c3ccccc3C)nc3c2Cc2c(CO)cnc(C)c2O3)cc1,-13%,-19%
COc1ccc(N2CCN(c3oc(/C=C/c4ccccc4OC)nc3C#N)CC2)cc1,0%,3%
Cc1nnc(NC(=O)c2cc(-c3ccccn3)nc3ccccc23)s1,-3%,-7%

# Screening results as filed in PubChem.

# Outcome played no part in choosing rows; overall some 0.55% were active at least once.
